Compound activity: PubChem, National Center for Advancing Translational Sciences (NCATS)
Menin-MLL FL inh – menin-MLL binding inhibition, fluorescein peptide | FP activity change, % at 61.4 µM | AID 1766 | Fluorescence polarization, fluorescein-MLL peptide displacement from menin | 290,000 tested, under 10 active; inconclusive = falling polarisation curve, or a change in total fluorescence; inactive = total fluorescence flat and polarisation flat or rising; no compound was filed as active; the % refers to the polarisation; negative = inhibition;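 also: % of control where 0% means no effect; inhibitors lower the polarisation; unlabelled MLL peptide was the positive control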
TRPML1 blocker – human mucolipin-1 channel inhibition. actives 0.02% (n = 390,000). AID 624415. activity change, negative = inhibition, % (no concentration beside the values). TRPML1-inducible cells, Ca2+ dye fluorescence, FDSS; active compounds read low; inhibition of EC80 agonist-evoked calcium signal; in the data active means activity change below about -50%; inconclusive means about -30% to -50%; inactive means above about -30%;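 also: stimulus is agonist 54-4 at its EC80 concentration; % is scaled to controls: 0 for no effect and ±100 for the full control effect; compound concentration not given in the record; the text of the record puts the active cut at -80%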
Target sequence (Q9GZU1 whole entry, looked up): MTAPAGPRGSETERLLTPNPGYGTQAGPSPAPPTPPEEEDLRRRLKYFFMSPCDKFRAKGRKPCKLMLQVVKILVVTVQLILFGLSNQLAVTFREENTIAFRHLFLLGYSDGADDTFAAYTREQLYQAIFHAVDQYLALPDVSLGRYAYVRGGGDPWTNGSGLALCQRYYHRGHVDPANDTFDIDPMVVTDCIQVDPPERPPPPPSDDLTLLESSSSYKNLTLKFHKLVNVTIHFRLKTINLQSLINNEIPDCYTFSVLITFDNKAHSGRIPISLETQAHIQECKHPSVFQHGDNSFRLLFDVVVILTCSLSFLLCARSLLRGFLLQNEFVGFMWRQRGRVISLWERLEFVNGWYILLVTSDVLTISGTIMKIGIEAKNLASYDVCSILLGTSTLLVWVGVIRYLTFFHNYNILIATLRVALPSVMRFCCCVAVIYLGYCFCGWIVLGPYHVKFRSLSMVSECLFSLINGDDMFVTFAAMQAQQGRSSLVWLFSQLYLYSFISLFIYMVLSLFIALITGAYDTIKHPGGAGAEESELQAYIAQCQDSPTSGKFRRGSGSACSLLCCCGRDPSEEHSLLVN
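Tet-induced TRPML1-DL cells loaded with Ca8 no-wash calcium dye were read kinetically on FDSS. Compound addition was followed by EC80 agonist 54-4 (4 uM final); inhibition was read over 110 s.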
gsp agonist – agonists of gsp mutant (McCune-Albright syndrome); actives 0.13% (n = 340,000); gsp mutant cells, cAMP HTRF, 30 min; control for the full effect not named in the record; Potency, µM (top dose mostly 76.9 µM), inactives show at the highest dose activation (cAMP increase), hits mostly activators; active = well fitted activation curve with a large enough effect; inconclusive = small, poorly fitted or top-dose-only effect, or another doubt; inactive = no such curve, though single readings can be large or run the other way; cell line not stated here;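 also: phosphodiesterase inhibitor Ro 20-1724 added with compounds to block cAMP breakdown; potency is read from the fitted curve at half-maximal effect; nearly all actives have a fitted effect of over 60% in size; about a fifth of the inactives were tested at one dose only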
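Cells in DMEM/10% FBS with G418 were pretreated with compounds in DMSO plus […] (300 uM stock) for 30 min at 37C. cAMP was measured by HTRF (cAMP-d2 plus anti-cAMP antibody-K) after 30 min at room temperature.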
gsp antag – antagonists of gsp mutant (McCune-Albright syndrome). gsp-mutant cells, cAMP HTRF, 30 min; control for the full effect not named in the record. Potency, µM (highest dose often 76.9 µM), for the others: at the highest dose activity change, negative = inhibition, usual class: inhibitors. actives 0.4% (n = 340,000); active = falling curve of any shape with a large fitted effect; inconclusive = falling curve, mostly with a smaller effect; inactive = flat or rising curve; cell line not stated here;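 also: intracellular cAMP measured with PDE inhibitor Ro 20-1724 present during compound exposure; potency is read from the fitted curve at half-maximal effect; % is scaled to controls: 0 for no effect and ±100 for the full control effect; nearly all actives have a fitted effect of over 65% in size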
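Measurement of cellular cAMP by homogeneous time-resolved fluorescence following a 30 min compound exposure at 37C. The PDE inhibitor […] was present throughout; the assay buffer was DPBS with 0.05% BSA and 0.005% Tween 20.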
TRPML1 ag – activates the human TRPML1 channel | actives 0.12% (n = 410,000) | TRPML1-expressing cells, Ca2+ dye fluorescence, FDSS; host cell line not named in the record; reference of the full effect not given here | AID 624414 | Q9GZU1 | activation, % (concentration not given with the values); in the data active = activation above about 50%; inconclusive = about 30% to 50%; inactive = below about 30%; also: 0% is about no effect; the text of the record puts the active cut at 80%
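Tet-induced TRPML1-DL cells, 1,500 per well, cultured overnight, were loaded with a no-wash Ca2+ dye for 45–90 min. Calcium fluorescence was recorded on the FDSS for 110 s after compound addition, before the EC80 agonist (4 uM 54-4) was added.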
ClpP mod – qHTS Assay for Activators of ClpP; purified B. subtilis ClpP, FRET peptide cleavage, 20 min; Potency, µM (doses to about 57.5 µM), for inactives: at the top dose activity change, negative = active; actives 1.9% (n = 340,000); active = well fitted falling curve with a large enough effect; inconclusive = small, poorly fitted or top-dose-only effect; inactive = no such curve, though single readings can be large or run the other way; also: potency is read from the fitted curve at half-maximal effect; the source files actives as falling curves though it sought activators and does not explain the sign; nearly all actives have a fitted effect of over 65% in size; many hits overshoot -100%
Target sequence (P80244 whole entry, looked up): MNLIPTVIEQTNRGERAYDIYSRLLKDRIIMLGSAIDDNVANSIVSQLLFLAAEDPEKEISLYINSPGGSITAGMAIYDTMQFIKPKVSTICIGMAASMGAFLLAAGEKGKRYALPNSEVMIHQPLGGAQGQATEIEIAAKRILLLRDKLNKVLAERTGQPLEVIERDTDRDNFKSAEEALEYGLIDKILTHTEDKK
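Buffer: 100 mM Tris/HCl pH8, 100 mM KCl, 0.05% low protease BSA, 2.5% glycerol, 0.01% Tween-20. ClpP 10 microg/mL final; 20 min RT; delta FRET normalized to ADEP and DMSO controls.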
Active calls of the source: *; [ ] = remark or other dose.

How did CCOC(=O)c1c(S(=O)(=O)N2CCCC(C(=O)N3CCN(c4ccccc4)CC3)C2)c(C)n(C)c1C (centres undefined) do in these assays?
TRPML1 blocker: -9; TRPML1 ag: -1.4; ClpP mod: 0.2%

How did COc1cc(NC(=O)COC(=O)/C=C/c2ccc(Cl)cc2Cl)cc(OC)c1 do in these assays?
Menin-MLL FL inh: -0.2; TRPML1 blocker: 26; gsp agonist: 3%; gsp antag: 11%; TRPML1 ag: -0.1; ClpP mod: -25%

What do the screens show for `COc1cc(=O)[nH]c(SC(C)C(=O)Nc2cc(C)on2)n1` (centres undefined)?
Menin-MLL FL inh: -2.5; TRPML1 blocker: -5; gsp agonist: -23%; gsp antag: -6%; TRPML1 ag: -0.4

What do the screens show for `CC1CN(S(=O)(=O)c2cccc(C(=O)OCCOc3ccccc3)c2)CC(C)O1` (centres undefined)?
TRPML1 blocker: 0; gsp agonist: -43%[inhibitor]; gsp antag: inconclusive; TRPML1 ag: 0.7; ClpP mod: 1.0%

Results for CN(CC(=O)Nc1ccc(S(=O)(=O)N2CCCC2)cc1)Cc1c(F)cccc1Cl ?
Menin-MLL FL inh: 1.0; TRPML1 blocker: 37; gsp agonist: -14%[15.4 µM]; gsp antag: -25%; TRPML1 ag: 2.4; ClpP mod: -0.5%

How did CCCCn1c(N)c(N(CC(C)C)C(=O)c2ccco2)c(=O)[nH]c1=O do in these assays?
TRPML1 blocker: -17; gsp agonist: -27%[15.4 µM]; gsp antag: 1%; TRPML1 ag: 0.7

How did N#CCSc1nc2cc(C(=O)N3CCC(C(N)=O)CC3)ccc2c2nc3ccccc3n12 do in these assays?
Menin-MLL FL inh: 2.6; TRPML1 blocker: -5; gsp agonist: 28%; gsp antag: 6%; TRPML1 ag: 0.2; ClpP mod: -3.5%

What do the screens show for `CCNC(=O)c1ccccc1NC(=O)c1cccc(S(=O)(=O)N2CCC(C)CC2)c1`?
Menin-MLL FL inh: 0.0; TRPML1 blocker: 17; gsp agonist: 20%; gsp antag: -12%; TRPML1 ag: 0.1; ClpP mod: 0.4%

How did Cc1ccc(NC(=O)COC(=O)Cn2cnc3c2c(=O)n(C)c(=O)n3C)cc1F do in these assays?
TRPML1 blocker: 7; gsp agonist: 6%[15.4 µM]; gsp antag: 4%; TRPML1 ag: 0.1; ClpP mod: 1.1%

How did COCCOC(=O)c1c(C)n(C)c2ccc(OC(=O)c3ccccc3F)cc12 do in these assays?
Menin-MLL FL inh: 1.5; TRPML1 blocker: 10; gsp agonist: inconclusive; gsp antag: 3%; TRPML1 ag: 1.6; ClpP mod: -1.7%

What do the screens show for `O=C(c1ccccc1F)N1N=C(C(F)(F)F)CC1(O)c1ccccc1` (centres undefined)?
TRPML1 blocker: 9; gsp agonist: -23%; TRPML1 ag: 0.0; ClpP mod: -3.1%

How did Cc1csc2nc(CCNS(=O)(=O)c3cccs3)cn12 do in these assays?
Menin-MLL FL inh: 2.5; TRPML1 blocker: 26; gsp agonist: -115%[inhibitor]; gsp antag: -1%; TRPML1 ag: -0.2; ClpP mod: 0.0%

How did O=C(CN1C(=O)CSc2ccc(S(=O)(=O)N3CCOCC3)cc21)NCc1ccc(F)cc1 do in these assays?
Menin-MLL FL inh: 1.0; TRPML1 blocker: 1; gsp agonist: -18%; gsp antag: 5%; TRPML1 ag: 1.4; ClpP mod: 0.1%

Results for C#CCNC(=O)C1=C[C@H](C(C)(C)C)C[C@H](OCCCCO)O1 ?
TRPML1 blocker: 6; gsp agonist: -31%[inhibitor]; gsp antag: 10%; TRPML1 ag: -0.3; ClpP mod: -4.3%

What do the screens show for `Cc1[nH]c(=O)c(C#N)cc1-c1csc(-c2ccccc2)n1`?
Menin-MLL FL inh: -1.1; TRPML1 blocker: -1; gsp agonist: inconclusive; gsp antag: 3%; TRPML1 ag: 0.5; ClpP mod: -5.8%

How did C[C@@H]1CN([C@H](C)CO)C(=O)c2cc(Br)cnc2O[C@H]1CN(C)C(=O)Nc1ccc2c(c1)OCO2 do in these assays?
TRPML1 blocker: -12; gsp agonist: -2%; TRPML1 ag: -0.5; ClpP mod: 0.9%

Results for COc1cc(/C=C/C(=O)Nc2ccncc2)cc(OC)c1OC ?
Menin-MLL FL inh: 6.3; TRPML1 blocker: 12; gsp agonist: 0%; gsp antag: 11%; TRPML1 ag: 1.3; ClpP mod: inconclusive

What do the screens show for `COCCSc1nc2c([nH]c3ccccc32)c(=O)n1-c1ccc(OC)c(OC)c1`?
TRPML1 blocker: -16; TRPML1 ag: 1.0; ClpP mod: -17%

What do the screens show for `Cc1ccc2nc(NC(=O)CCn3cccc3)sc2c1`?
Menin-MLL FL inh: 2.0; TRPML1 blocker: 6; gsp agonist: 14%; gsp antag: 2%; TRPML1 ag: 1.0; ClpP mod: -0.5%

What do the screens show for `Fc1cccc(NC(=S)NC2CCCCCCC2)c1`?
TRPML1 blocker: -24; gsp agonist: 10%; gsp antag: -19%; TRPML1 ag: 0.8; ClpP mod: -2.4%

Results for N#Cc1ccc(C=NN2CCCCCC2)cc1 ?
TRPML1 blocker: 24; gsp agonist: 5%[15.4 µM]; gsp antag: 3%; TRPML1 ag: 1.6; ClpP mod: 0.4%

What do the screens show for `CN=CC1=C(O)CC(C)(C)CC1=O`?
Menin-MLL FL inh: 4.0; TRPML1 blocker: 8; gsp agonist: 3%; gsp antag: 5%; TRPML1 ag: 0.3; ClpP mod: -0.2%

Results for COc1ccc(NC(=O)C2CCCN(S(=O)(=O)c3cnc[nH]3)C2)cc1 (centres undefined) ?
Menin-MLL FL inh: 0.5; TRPML1 blocker: 9; gsp agonist: -5%; gsp antag: 0%; TRPML1 ag: -0.4; ClpP mod: 0.0%

How did Cc1ccccc1NC(=O)CC(=O)Nc1ccccc1C do in these assays?
Menin-MLL FL inh: 0.8; TRPML1 blocker: -18; gsp agonist: -15%[15.4 µM]; gsp antag: -1%; TRPML1 ag: -0.9

What do the screens show for `CCCC1=C(C(=O)OCC)C(c2ccccc2OC)NC(=O)N1` (centres undefined)?
Menin-MLL FL inh: -5.3; TRPML1 blocker: -8; gsp agonist: 28%; gsp antag: 8%; TRPML1 ag: 0.7; ClpP mod: -1.2%

What do the screens show for `CCCCn1c(=O)[nH]c(=O)c2c1nc(-c1ccccn1)n2CC`?
Menin-MLL FL inh: -21; TRPML1 blocker: 15; gsp agonist: 25%; gsp antag: -3%; TRPML1 ag: -0.7

Results for CC(C)(C)S(=O)N1Cc2cc(C(=O)NCCCN3CCOCC3)nc(-c3cccc(-c4cc5ccccc5o4)c3)c2[C@H]1CCO (some centres undefined) ?
TRPML1 blocker: 11; TRPML1 ag: 1.6; ClpP mod: inconclusive

What do the screens show for `Cn1c(=O)oc2cc(S(=O)(=O)Nc3ccc(Cl)cc3F)ccc21`?
Menin-MLL FL inh: 1.7; TRPML1 blocker: -12; gsp agonist: 29%; gsp antag: -1%; TRPML1 ag: 0.3; ClpP mod: 1.0%

Results for Cc1cccc(OCC(=O)NCC(=O)N/N=C/c2ccccc2)c1 ?
Menin-MLL FL inh: 2.2; TRPML1 blocker: -5; gsp agonist: 2%; gsp antag: 2%; TRPML1 ag: 2.0

Results for O=C(Nc1nc2c(s1)CCCC2)c1cccnc1 ?
Menin-MLL FL inh: 0.1; TRPML1 blocker: -6; gsp agonist: -39%; gsp antag: -8%; TRPML1 ag: -0.3; ClpP mod: -2.4%

What do the screens show for `O=C(CCS(=O)(=O)c1ccccc1)N1CCOCC1`?
Menin-MLL FL inh: 2.0; TRPML1 blocker: -8; gsp agonist: -5%[15.4 µM]; gsp antag: 16%; TRPML1 ag: 0.2

How did CC(=O)c1ccc(NC(=O)COC(=O)c2nc(Cl)ccc2Cl)cc1 do in these assays?
Menin-MLL FL inh: 0.2; TRPML1 blocker: -7; gsp agonist: -15%[15.4 µM]; gsp antag: 4%; TRPML1 ag: -0.4; ClpP mod: -2.0%

How did Cc1ccc(N2C(=O)[C@@H]3[C@H](C2=O)C2CCCN2[C@@H]3C(=O)c2ccccc2)cc1 (some centres undefined) do in these assays?
Menin-MLL FL inh: inconclusive; TRPML1 blocker: -16; gsp agonist: inconclusive; gsp antag: 1%; TRPML1 ag: 6.3; ClpP mod: -0.5%

Results for COCCCNC(=S)N1CCN(c2nc(C)nc3sc4c(c23)CCCC4)CC1 ?
Menin-MLL FL inh: -1.9; TRPML1 blocker: 3; gsp agonist: -1%; gsp antag: inconclusive; TRPML1 ag: -0.4; ClpP mod: 2.3%

What do the screens show for `COC(=O)c1sccc1NC(=O)NC1CCCCC1`?
Menin-MLL FL inh: -3.7; TRPML1 blocker: -26; gsp agonist: inconclusive; gsp antag: 11%; TRPML1 ag: 4.0; ClpP mod: -0.9%

What do the screens show for `N#Cc1ccccc1NC(=O)COC(=O)/C=C/c1cn(-c2ccccc2)nc1-c1ccc(Cl)cc1`?
Menin-MLL FL inh: -0.7; TRPML1 blocker: 31; gsp agonist: -8%[15.4 µM]; gsp antag: 20%; TRPML1 ag: 0.0

Fetched by structure from above, 3 records:
Results for Cc1cccc(OCC(=O)NCC(=O)N/N=C/c2ccccc2)c1 ?
Menin-MLL FL inh: 2.2; TRPML1 blocker: -5; gsp agonist: 2%; gsp antag: 2%; TRPML1 ag: 2.0

Results for CC(C)(C)S(=O)N1Cc2cc(C(=O)NCCCN3CCOCC3)nc(-c3cccc(-c4cc5ccccc5o4)c3)c2[C@H]1CCO (some centres undefined) ?
TRPML1 blocker: 11; TRPML1 ag: 1.6; ClpP mod: inconclusive

How did CC(=O)c1ccc(NC(=O)COC(=O)c2nc(Cl)ccc2Cl)cc1 do in these assays?
Menin-MLL FL inh: 0.2; TRPML1 blocker: -7; gsp agonist: -15%[15.4 µM]; gsp antag: 4%; TRPML1 ag: -0.4; ClpP mod: -2.0%

(listing goes on)
What do the screens show for `Cc1cccc(NC(=O)Nc2cccc(C)n2)n1`?
Menin-MLL FL inh: 2.4; TRPML1 blocker: -6; gsp agonist: -14%; gsp antag: 6%; TRPML1 ag: -0.2; ClpP mod: -2.9%

How did Cc1ccc(CC23CN4CCN(CC(C4)C2O)C3)c(C)c1 (centres undefined) do in these assays?
Menin-MLL FL inh: 0.3; TRPML1 blocker: -4; gsp agonist: -19%; gsp antag: 9%; TRPML1 ag: -0.4; ClpP mod: 1.1%

How did O=C(C1CN(S(=O)(=O)c2ccccc2)CCN1S(=O)(=O)c1ccccc1)N1CCCCCC1 (centres undefined) do in these assays?
Menin-MLL FL inh: -1.5; TRPML1 blocker: -8; gsp agonist: 49%; gsp antag: -6%; TRPML1 ag: -1.3; ClpP mod: 1.3%

Results for CC1=C(C(N)=O)C(c2ccccc2)n2nc(-c3ccncc3)nc2N1 (centres undefined) ?
Menin-MLL FL inh: 2.8; TRPML1 blocker: -18; gsp agonist: 2%; gsp antag: 7%; TRPML1 ag: -0.3; ClpP mod: -2.8%
